GLA inh pH 4.5: inhibitors of human alpha-galactosidase A at pH 4.5 | P06280 | activity change, negative = inhibition, % at 105 µM | purified enzyme, 4-MU-alpha-Gal fluorescence, pH 4.5 | 230,000 tested, under 10 active | AID 1467; inconclusive = small, poorly fitted or top-dose-only inhibition, or a rising curve; inactive = flat fitted curve, though single readings scatter; no compound was filed as active;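 note: 0% = full activity with enzyme and -100% = basal without enzyme; dose as in the result columns while the protocol names 77 µM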
miR-21 FLuc: raises the signal of a miR-21 reporter; HeLa miR-21 FLuc reporter, luciferase, 48 h; Potency, µM (series often up to 38.3 µM), inactives show top-dose reporter change, positive = more light; 340,000 tested, under 10 active; AID 2288; active = well fitted rising curve with a large enough effect; inconclusive = small, poorly fitted or top-dose-only effect; inactive = no such curve, though single readings can be large or run the other way;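 note: % of control where 0% means no effect; miR-21 action dims this reporter so a rising signal means less miR-21 action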
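HeLa cells endogenously expressing miR-21, stably carrying CMV-driven firefly luciferase with a downstream miR-21 binding site, 2000 cells/well. Titrations up to approximately 40 uM, 48 hours; luciferase luminescence read.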
Rango complex inh: Rango-importin beta binding inhibition; Q14974; Rango CFP/YFP FRET sensor + importin beta, 45 min; Potency, µM (series often up to 92.2 µM), without a hit: top-dose inhibition of complex formation; actives 0.031% (n = 340,000); active = rising FRET ratio curve, often small or poorly fitted; inconclusive = mostly compound fluorescence or quenching in the first reads; inactive = flat curves in all reads;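 note: potency is the fitted concentration of half-maximal effect; 0% = DMSO wells and 100% = buffer wells lacking importin beta; nearly all actives have a fitted effect of over 15% in size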
Target sequence (Q14974 whole entry, looked up): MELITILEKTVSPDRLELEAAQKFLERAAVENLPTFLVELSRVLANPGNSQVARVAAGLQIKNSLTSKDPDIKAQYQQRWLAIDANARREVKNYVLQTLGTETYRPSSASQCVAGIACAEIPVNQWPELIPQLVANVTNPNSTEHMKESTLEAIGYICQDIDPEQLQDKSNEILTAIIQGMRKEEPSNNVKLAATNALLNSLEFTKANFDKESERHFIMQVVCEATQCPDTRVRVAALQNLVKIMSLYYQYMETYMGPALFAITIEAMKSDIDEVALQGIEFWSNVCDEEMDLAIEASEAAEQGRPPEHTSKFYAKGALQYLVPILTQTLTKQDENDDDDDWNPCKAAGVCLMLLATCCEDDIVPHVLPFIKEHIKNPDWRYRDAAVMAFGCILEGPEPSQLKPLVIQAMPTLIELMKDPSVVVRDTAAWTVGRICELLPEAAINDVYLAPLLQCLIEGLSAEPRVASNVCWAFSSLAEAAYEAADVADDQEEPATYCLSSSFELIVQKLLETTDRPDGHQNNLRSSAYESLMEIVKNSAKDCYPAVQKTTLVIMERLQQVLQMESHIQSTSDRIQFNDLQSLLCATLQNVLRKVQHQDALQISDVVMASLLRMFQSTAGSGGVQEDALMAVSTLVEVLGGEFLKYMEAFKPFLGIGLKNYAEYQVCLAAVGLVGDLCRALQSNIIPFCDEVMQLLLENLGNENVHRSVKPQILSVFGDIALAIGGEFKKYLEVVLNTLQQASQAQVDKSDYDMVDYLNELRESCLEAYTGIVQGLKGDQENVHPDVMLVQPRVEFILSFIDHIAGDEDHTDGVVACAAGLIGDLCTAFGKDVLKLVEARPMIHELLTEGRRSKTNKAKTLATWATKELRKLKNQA
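FRET biosensor (snurportin 1 IBB flanked by EYFP and cerulean), 50 nM, with compound 5 min, then 0.125 microM importin beta in PBS, 1 mM DTT, 0.02% Tween-20, 0.1% BSA. CFP/YFP ratio read after 45 min at room temperature; pre-read flags interference.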
Rango release inh: inhibition of RanGTP-driven Rango-importin beta dissociation; O95149+P62826; Biochemical FRET Rango-importin beta, RanGTP-induced dissociation; Potency, µM (highest dose often 46.1 µM), for the others: top-dose activity change, negative = inhibition; actives 0.071% (n = 340,000); AID 540253; active means falling FRET ratio curve, often poorly fitted, with flat reads before Ran was added; inconclusive means other falling curves, or compound fluorescence or quenching; inactive means flat or rising ratio curve;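 note: potency is the fitted concentration of half-maximal effect; % of control where 0% means no effect; nearly all actives have a fitted effect of over 45% in size; -100% = wells without RanGTP and RCC1; the record marks most hits as doubtful in a second field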
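Compounds sat 5 min at room temperature with 0.1 uM Rango biosensor plus 0.25 uM importin beta, then FRET pre-read. RanGTP-RCC1 (0.6 uM Ran, 2mM GTP, 0.2 uM RCC1) added for 45 min, and the CFP/YFP post-read measured blocked complex dissociation.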
* = called active by the depositor; ? = inconclusive; · = not tested or not shown; [ ] = another dose, or the depositor's remark. A portion of the library. The share of hits here may be higher or lower than overall.

SMILES	GLA inh pH 4.5	miR-21 FLuc	Rango complex inh	Rango release inh
CC(Sc1nc(N2CCOCC2)c2c(c1C#N)CC(C)(C)OC2)C(=O)Nc1ccccc1 (configuration not stated)	-1.7	-13.1%	-3.3%	0.2%
C=CCN(C(=O)CNC(=O)c1ccco1)C(C(=O)NC1CCCCC1)c1cccnc1 (configuration not stated)	·	0.0%	-0.8%	4.4%
O=C(Cn1c(=O)c2cccn2c2ccccc21)NCc1cccc(F)c1	·	-15.0%	-3.5%	9.3%
CCCc1nc(SCC(=O)Nc2nc3c(s2)CCCC3)c2ccccc2n1	-2.2	-8.7%	0.0%	-10.4%
CCN(C(=O)COC(=O)CCc1ccc(OC)cc1)c1c(N)n(Cc2ccccc2)c(=O)[nH]c1=O	·	·	-2.3%	-0.2%
Clc1ccccc1-c1nc(-c2ccc(Br)o2)no1	·	-45.2%	0.0%	7.3%
CSCCC(NC(=O)COc1ccccc1)C(=O)N1CCN(c2ccccc2)CC1 (configuration not stated)	·	·	-0.3%	-18.2%
C#CCOCCOCCOCCNc1nc(N2CCN(C(=O)C([C@@H](C)CC)n3cc(C(N)CC(C)C)nn3)CC2)nc(N2CCN(C(=O)[C@H](CCC(=O)O)n3cc(C(N)Cc4ccc(O)cc4)nn3)CC2)n1 (some centres not stated)	1.9	1.4%	-0.8%	4.8%
O=C(OCc1nnc(-c2ccc(Cl)cc2)o1)c1ccc(=O)n(Cc2ccccc2)n1	-7.1	-18.2%	0.4%	-16.1%
Cc1ccc(C)c(Cn2nnc3c(=O)[nH]c(C4CCCN(C(=O)CC(C)C)C4)nc32)c1 (configuration not stated)	-0.2	10.4%	0.1%	2.8%
S=c1nc2c(n[nH]1)c1ccccc1n2CCc1ccccc1	·	8.0%	?	-13.7%
CN1CCc2c(sc3c2c(=O)n(-c2ccccc2)c2nnc(SCc4ccc(F)cc4)n32)C1	·	·	3.1%	-7.3%
COc1ccc([N+](=O)[O-])cc1NC(C)C	-3.4	-3.5%	-4.6%	5.8%
CCSc1nc2[nH]ncc2c(=O)[nH]1	2.2	1.7%	-3.1%	?
Cc1c(O)ccc(/C(Cc2ccc3ccccc3n2)=N\N)c1O	-12.8	-2.3%	?	-3.1%
CN(C)c1ccc(-n2cccc2/C=N/n2cnnc2)cc1	2.8	-62.1%	-0.2%	-17.1%
CCOC(=O)c1cccc(NC(=O)CSc2nnc(C)n2CC2CCCO2)c1 (configuration not stated)	·	0.0%	3.1%	-5.4%
O=C(NCCCn1ccnc1)C(=O)NCC1OCCCN1S(=O)(=O)c1ccccc1 (configuration not stated)	3.2	-2.9%	-0.2%	18.7%
Cc1ccc(NC(=O)Cn2nc(C(=O)O)c3ccccc3c2=O)cc1S(=O)(=O)N1CCCCC1	·	·	-2.2%	10.3%
O=c1cc(-c2ccccc2)nc(N2CCN(Cc3ccccc3)CC2)[nH]1	0.6	-0.1%	1.8%	-7.8%
Cn1c(=O)c2[nH]c(CN(Cc3ccccc3)Cc3ccccc3)nc2n(C)c1=O	-8.9	7.8%	-0.6%	1.6%
CCCn1c(=O)c(-c2nc3ccccc3[nH]2)c(O)c2ccccc21	11.5[21.1 µM]	-4.9%	-1.4%	-5.9%
C#CCOCCOCCOCCNc1nc(N2CCN(C(=O)[C@H](Cc3cc4ccccc4[nH]3)n3cc([C@@H](N)CC(C)C)nn3)CC2)nc(N2CCN(C(=O)[C@H](Cc3cc4ccccc4[nH]3)n3cc([C@@H](N)CC(C)C)nn3)CC2)n1	-9.3	1.4%	2.3%	4.4%
Cc1ccnc2nc(C(=O)OCCOc3ccc(F)cc3)nn12	11.0	-4.2%	?	0.1%
Cn1nc(C(C)(C)C)cc1C(=O)NCc1ccc2c(c1)OCO2	·	13.2%	12.3%	-16.6%
Cc1c(NC(=O)c2nn(C)c(=O)c3ccccc23)c(=O)n(-c2ccccc2)n1C	·	·	-1.7%	17.1%
Cc1cccc(NC(=O)c2cc(N3C(=O)CCC3=O)ccc2Cl)n1	-0.5	-4.2%	0.0%	1.3%
c1ccc(C2=NCCCN2)cc1	-0.1	-1.2%	-1.0%	12.7%
O=C(NCc1ccco1)c1ccc(S(=O)(=O)c2cccc(S(=O)(=O)N3CCOCC3)c2)cc1	-11.3	-5.7%	1.8%	11.9%
O=C(CCN1C(=O)c2ccncc2C1=O)Nc1ccc2c(c1)OCCO2	-1.9	-9.8%	3.9%	17.3%
O=S(=O)(/N=C(\[O-])C[n+]1ccccc1)c1ccc(Cl)cc1	-3.9	2.0%	-0.1%	5.7%
CN(C[C@H](Cc1ccccc1)N(C[C@@H](Cc1cccc2ccccc12)N(CCc1ccccc1)N=O)N=O)N=O	-4.3	-0.5%	-1.3%	7.5%
CC(C)[C@H](NC(=O)Nc1ccc2c(c1)OCCO2)C(=O)O	-1.8	-5.1%	-3.4%	3.1%
COc1ccc(-c2cnn3c4c(c(C)nc23)CCN4C2CCCC2)cc1OC	-2.3	-15.5%	-5.4%	-20.2%
CCN(C(=O)CCS(=O)(=O)c1cc2c(cc1Cl)NC(=O)CO2)c1ccccc1	·	-4.4%	5.1%	24.5%
COc1ccc(NC(=O)NC23CC4CC(CC(C4)C2)C3)cc1OC	-5.5	-27.7%	0.6%	5.3%
NC(=O)c1ccc(F)cc1	0.0	-0.6%	-4.3%	-12.7%
O=C(NCC1CCCO1)c1cccc(Oc2ccc([N+](=O)[O-])cc2)c1 (configuration not stated)	·	10.7%	0.2%	12.0%
CCOC(=O)c1c(N/N=C/c2cccnc2)n[nH]c1C	-2.4	-15.4%	-4.1%	-0.2%
CCCCc1ccc(NC(=O)NCc2cccnc2)cc1	·	-7.3%	-1.4%	1.5%
Cc1ccc(S(=O)(=O)Nc2ccccc2C(O)c2ccccc2)cc1 (configuration not stated)	·	12.4%	2.3%	6.3%
COCCCn1c(C)nnc1SCc1ccc(C(C)(C)C)cc1	-0.8	-2.3%	1.7%	-2.4%
CNc1oc(/C=C/c2ccccc2)nc1C#N	?	-89.2%	?	-27.7%
CC(Sc1nccn1C)C(=O)Nc1ccccc1 (configuration not stated)	·	-0.4%	0.5%	0.0%
CCOC(=O)c1c(C)[nH]c(C)c1C(=O)COC(=O)c1ccc(Cl)nc1	·	·	0.9%	-3.9%
CCOc1c2ccc(C(=O)NCc3ccc(OC)cc3)cc2nn1CCOC	11.2	-4.2%	0.2%	18.3%
OC[C@@H]1[C@@H](c2ccc(Cl)cc2)C(c2ccccc2)=NN1c1ccccc1	?	·	?	?
COc1ccc2cc(C(=O)C3CCCN(C(=O)c4snnc4C)C3)ccc2c1 (configuration not stated)	-0.7	3.7%	-0.3%	0.9%
CCOC(=O)CN1C(=O)S/C(=C/c2ccc3c(c2)n(C)c(=O)n3C)C1=O	0.2	-27.3%	-2.0%	0.0%
COC(=O)C1=C(C(=O)OC)[C@]2([C@@H]3CC=CCN[C@@H](Cc4ccccc4)C(=O)N3Cc3ccccc3)C=C[C@H]1O2	·	·	2.2%	8.1%

New compounds follow.
SMILES	GLA inh pH 4.5	miR-21 FLuc	Rango complex inh	Rango release inh
O=C(CCS(=O)(=O)c1ccc(Br)cc1)N1CCN(c2ccccc2Cl)CC1	-2.5	-0.6%	-5.1%	0.2%
C=C(C)C(=O)OCCCCCCOc1ccc(C(=O)O)cc1	1.7	-16.7%	0.7%	7.3%
Cc1nn2c(nc(N3CCCCC3)c3ccccc32)c1C=O	2.4	-6.7%	-0.3%	-5.8%
CCC1CCCCN1c1cc(C)nc2cc(-c3cccc(C)c3)nn12 (configuration not stated)	-10.0	-0.7%	-3.3%	-10.1%
CCN(CC)CCCNC(=S)N(Cc1ccco1)Cc1cc2cc3c(cc2[nH]c1=O)OCCO3	7.9	-7.0%	·	·
CN(Cc1ccc(C(F)(F)F)cc1)C(=O)c1ccc2ccccc2n1	·	-16.9%	1.7%	0.9%
CC(=O)Nc1ccc(Sc2ccccc2C(=O)O)c(C(=O)O)c1	2.7	-9.0%	5.9%	-7.4%
O=C(CSc1nnc(-c2ccc(O)cc2)n1Cc1ccco1)c1ccccc1	-4.4	3.2%	-1.0%	-6.1%
Cc1cc(C(=O)NCC(=O)OCC(=O)N2CCCCCC2)ccc1[N+](=O)[O-]	0.2	0.6%	1.9%	4.4%
CC(Oc1ccccc1)C(=O)OCC(=O)Nc1ccc2c(c1)OCO2 (configuration not stated)	·	·	0.3%	-3.4%
CN(C)S(=O)(=O)c1cc(NC(=O)CN2CCN(c3ccccc3O)CC2)ccc1Cl	10.6	9.5%	4.1%	-9.1%
O=C(Nc1ccccc1C(F)(F)F)N1CCN(C(c2ccccc2)c2ccccc2)CC1	-1.6	-1.0%	-2.4%	-6.9%
Cc1sc2nc(SCC(=O)NCc3ccco3)n(C)c(=O)c2c1C	-4.2	-0.7%	-1.9%	-0.8%
O=C(CCCC(=O)NCc1ccccc1)NCc1ccccc1	3.4	-2.2%	-0.3%	-6.2%
COc1ccc(C(=O)OC(C)CN2CCN(C)CC2)cc1OC (configuration not stated)	6.6	-5.2%	0.8%	0.2%
COc1ccc(NC(=O)c2c(SC)nsc2SC)cc1	-5.3	-11.6%	-1.9%	2.2%
Nc1nc2c(c(=O)[nH]1)CN(Cc1ccccc1)CC2	·	·	-3.5%	-8.7%
CCOc1ccc(Oc2ccc(S(=O)(=O)N3CCOCC3)cc2NC(=O)CCNC(C)=O)cc1	·	·	-5.1%	16.6%
O=C1Cc2ccccc2C(=O)N1Nc1ccccc1	·	·	-0.3%	-17.7%
CCOc1cc(C)c(Cl)cc1S(=O)(=O)n1ccnc1	0.9	-13.4%	0.5%	3.7%
c1ccc(-c2nnc(CSc3ccc4c(c3)OCCO4)o2)cc1	3.0	-16.1%	-2.6%	1.0%
Cc1c(/C=N/Nc2ccc([N+](=O)[O-])cn2)c2ccccc2n1Cc1ccccc1	0.8	-6.9%	0.1%	-11.1%
Cc1cc(C)n2c(SCC(=O)Nc3ccccc3C#N)nnc2n1	·	·	-1.3%	0.5%
Cc1ccc(/C=N/NC(=O)c2nnn(-c3nonc3N)c2CSc2ccccc2)o1	·	-4.2%	-3.9%	8.5%
COc1ccc(NC(=O)N2CCCC2C(=O)Nc2ccc(C)cc2)cc1 (configuration not stated)	9.9	-0.1%	0.3%	-13.3%
O=C(NCCN1C(=O)S/C(=C\c2cccnc2)C1=O)c1ccc([N+](=O)[O-])s1	·	·	5.8%	0.6%
CCN(CC)C(=O)Cn1cc(C(=O)C(=O)NCCc2ccccc2)c2ccccc21	·	-1.6%	0.3%	11.0%
COc1cc([N+](=O)[O-])ccc1NC(=O)NNC(=O)C(C)Oc1ccc(F)cc1F (configuration not stated)	·	7.5%	1.6%	19.0%
COc1ccc(CNS(=O)(=O)c2ccc(-c3cc(C)no3)cc2)cc1	·	-0.2%	?	11.7%
CCn1c(SCC(=O)Nc2sc(C)c(C)c2C#N)nnc1C1CC1	-2.0	1.8%	-2.6%	18.1%
CCc1nnc(NC(=O)c2ccc(-c3ccccc3Cl)o2)s1	9.9	-5.6%	0.7%	0.4%
CCOC(=O)N1CCN(S(=O)(=O)c2cc(Cl)ccc2Cl)CC1	1.2	-7.5%	?	-15.6%
CC(C)NC(=O)Nc1ccc2c(c1)C(=O)N([C@H](C)CO)C[C@H](C)[C@@H](CN(C)C(=O)Nc1ccc3c(c1)OCO3)O2	·	·	-5.6%	-3.9%
O=C(CNC(=O)c1cccs1)NCC(=O)OCC(=O)c1ccccc1	·	-0.9%	-1.5%	0.6%

Compound activity (PubChem BioAssay)
